Mtb hypoxia inh – Mtb hypoxia fluorescent reporter inhibition; 300,000 compounds, 0.1% hits; M. tuberculosis hypoxia-regulated fluorescent reporter, fluorescence; AID 1159583; fluorescence inhibition, % (no concentration beside the values);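 active = 35 to 45% if threefold the growth effect, above 45% if 1.5-fold the growth effect; inactive = the rest, general growth blockers included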;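 also: wells of about 50 µL received 100 nL stock; 0% = vehicle wells and 100% = reference inhibitor wells; whole bacteria with a GFP reporter of the hypoxia response; strong numbers were not always called active; many hits fall short of the cut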
Sa RN4220 lethal – S. aureus RN4220 growth inhibition | OD600, 16 h | inhibition, % (concentration not given with the values) | 330,000 compounds, 0.33% hits | AID 1259311;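 active = z-score of -3 or lower and OD600 up to 0.18 on both plates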;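 also: plate controls were untreated cells for no effect and reference antibiotic for full effect; stock transfer was 100 nL into about 80 µL; one replicate is shown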
BJeLR lethal – BJeLR cell viability loss | BJeLR (HRASV12) viability, CellTiter-Glo ATP luminescence, 48 h; reference of the scale not given here | inhibition, % (concentration not given with the values) | 300,000 compounds, 0.17% hits | AID 1554;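 active = replicate mean above 50%; inconclusive = above 50% but judged a plate artefact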;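 also: 50 nL library stock added to about 25 µL; numbers are from one replicate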
Bead autofluor – compound fluorescence in toxin protease inhibitor counterscreen; AID 624483; compound autofluorescence counterscreen, microsphere flow cytometry; hits give high values; fluorescence intensity (test concentration not listed); 360,000 compounds, 3.1% hits;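 active = at least 3 SD above the mean of all compounds, about 16000 in these data; inconclusive = too few beads counted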;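 also: 100 nL of 1 mM stock went into each well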
ugtP null kill – compounds lethal to S. aureus RN4220 ugtP deletion mutant. growth inhibition, % (test concentration not listed). 330,000 compounds, 0.54% hits. OD600 growth, 16 h; some inactives read as strong as hits;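 active = z-score under -3 and OD600 up to 0.15 on both plates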;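 also: plate controls were untreated wells for no effect and antibiotic for full effect; wells of about 80 µL received 100 nL stock; the first replicate is given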
PrP UTR inh – inhibition of PrP 5' UTR reporter expression; AID 488862; 340,000 compounds, 0.35% hits; cell-based PrP 5' UTR mRNA reporter, plate reader; inhibition, % (no concentration beside the values);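 active = every replicate at 50% or more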;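 also: 0 = median of the neutral control wells; tested in H4 reporter cells; numbers are from one replicate; inactives centre near -14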
Mtb hypoxia inh growth – also measured in Mtb hypoxia inh; calls as there; growth inhibition, %; measured here: M. tuberculosis growth (absorbance);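 0% = vehicle and 100% = reference antibiotic; read after six days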
* = called active by the depositor; ? = inconclusive; . = not tested or not shown.

Molecule | Mtb hypoxia inh | Mtb hypoxia inh growth | Sa RN4220 lethal | BJeLR lethal | Bead autofluor | ugtP null kill | PrP UTR inh
Cc1cccc(C)c1NC(=O)CCS(=O)(=O)c1ccc(Br)cc1 | 6 | 7 | 0.2 | -2 | 3793 | 19 | -26
CC(C)CC(NS(=O)(=O)c1ccc2c(c1)oc(=O)n2C)C(=O)NC1CCCc2ccccc21 (configuration not stated) | 4 | 4 | 6.6 | -2 | 4183 | 9 | 0
COc1ccc2[nH]c(=O)c(CN(Cc3cccs3)Cc3nnnn3C(C)(C)C)cc2c1 | 3 | -7 | 2.8 | 3 | 9107 | -8 | 16
O=C(COc1ccc([N+](=O)[O-])cc1)Nc1cccnc1 | 9 | 2 | 5.9 | 1 | 3976 | 1 | 6
O=c1c2ccccc2nnn1Cc1ccc(F)cc1 | 18 | 22 | 8.0 | 8 | 4127 | 5 | -15
COC(=O)c1cc(COc2ccc3oc(C)c(C(=O)OC)c3c2)c(C)o1 | 14 | 6 | 11 | 9 | 13512 | 39 | -18
CCc1ccc(-c2nnn(CCC(=O)OC)n2)cc1 | 5 | 2 | 3.8 | 1 | 9600 | 5 | 34
CS(=O)(=O)N1CCN(C(=O)Cc2cccs2)CC1 | 3 | 7 | 3.1 | -5 | 16441* | 1 | -13
COCCNC(=O)/C(C#N)=C/c1cccs1 | 7 | 3 | 1.6 | -4 | . | 3 | -79
NS(=O)(=O)c1ccc(N/N=C/c2ccc(O)cc2O)c([N+](=O)[O-])c1 | . | . | . | 5 | 3391 | . | -5
CCN(CC(=O)N1CCC(C)CC1)S(=O)(=O)c1ccc(C)cc1 | -9 | -1 | -4.2 | 5 | 5653 | -3 | -3
CSc1ncccc1C(=O)NCC(c1cccs1)N1CCOCC1 (configuration not stated) | -10 | 5 | 3.1 | 2 | ? | 2 | -2
Cc1cccc(C)c1NC(=O)C(NC=O)c1ccccc1Cl (configuration not stated) | -1 | 1 | 4.2 | -15 | 4249 | -3 | -21
COc1cc(COC(=O)Oc2ccc(CNC(C)=O)cc2OC)c([N+](=O)[O-])cc1OC | 4 | 8 | 7.3 | 7 | 3699 | 7 | -4
O=C1C(=O)N(CCN2CCOCC2)C(c2cccc(Cl)c2)/C1=C(\O)c1ccc2c(c1)OCCO2 (configuration not stated) | -1 | -2 | 2.1 | -7 | 6242 | 5 | -2
CN(Cc1ccccc1)c1ccc(C(CC(N)=O)NC(=O)Cc2cccc3ccccc23)cc1[N+](=O)[O-] (configuration not stated) | 14 | 3 | -1.5 | -11 | 4001 | -3 | -8
Cc1nn(-c2ccccc2)c2sc(C(=O)OCC(=O)N3CCCCC3)cc12 | 5 | 0 | 0.4 | 2 | 2472 | 1 | 2
COc1ccc(Cl)cc1NC(=O)CN(C)C(=O)CCC(=O)c1cc(C)sc1C | 4 | 0 | 0.2 | 12 | . | 6 | 6
Cc1ccc(S(=O)(=O)N=C(CN2CCOCC2)N2CCCC2)cc1 | 1 | 3 | 1.5 | . | . | 0 | .
COC(=O)Cc1c(C)[nH]n(-c2cc(Cl)cc(Cl)c2)c1=O | 0 | -6 | 14 | -11 | 3314 | 6 | -15
COc1cc(CC(=O)Nc2nc(-c3ccccc3)c(C(C)=O)s2)cc(OC)c1OC | -1 | -2 | 6.8 | -19 | 3910 | -1 | 14
Cc1ccc(S(=O)(=O)CCN2CCN(c3ccccc3)CC2)cc1 | 12 | 5 | 22 | 1 | 5769 | -2 | -15
CCN(CC)CC(=O)Nc1nn(-c2ccccc2)nc1C(N)=O | -1 | 8 | -1.9 | -1 | 9925 | -5 | 11
Cc1ccccc1N=Nc1c(C)[nH]n(-c2ccccc2)c1=O | -3 | 2 | -1.3 | . | . | 1 | .

Record cards, from the list above:
Results for `Cc1cccc(C)c1NC(=O)C(NC=O)c1ccccc1Cl` (configuration not stated) → Mtb hypoxia inh: -1; Mtb hypoxia inh growth: 1; Sa RN4220 lethal: 4.2; BJeLR lethal: -15; Bead autofluor: 4249; ugtP null kill: -3; PrP UTR inh: -21
Results for `COc1ccc(Cl)cc1NC(=O)CN(C)C(=O)CCC(=O)c1cc(C)sc1C` → Mtb hypoxia inh: 4; Mtb hypoxia inh growth: 0; Sa RN4220 lethal: 0.2; BJeLR lethal: 12; Bead autofluor: .; ugtP null kill: 6; PrP UTR inh: 6

Other results follow:
Molecule | Mtb hypoxia inh | Mtb hypoxia inh growth | Sa RN4220 lethal | BJeLR lethal | Bead autofluor | ugtP null kill | PrP UTR inh
CCCC1(c2ccccc2)NC(=O)N(CC(=O)Nc2ccccc2C(F)(F)F)C1=O (configuration not stated) | -6 | 2 | 3.8 | -4 | 3862 | 1 | -25
Cc1cccc(-n2c(O)c(/C=N/Nc3nc4c(c(=O)n(C)c(=O)n4C)n3C)c(=O)[nH]c2=S)c1 | 5 | 1 | 1.8 | -7 | 2532 | 4 | -6
CCCCNC(=O)c1onc(CCl)c1C(=O)OC | 24 | 24 | 0.5 | 4 | 2965 | 4 | 4
CCCN(CC(=O)Nc1ccc(C(N)=O)cc1)CC(=O)Nc1cc(Cl)ccc1Cl | -13 | -5 | 1.1 | -8 | 3592 | -5 | -19
O=C(c1ccc2ccccc2c1)N1CCCC1 | . | . | 0.2 | -7 | 3408 | 2 | -34
O=C(c1ccco1)N1CCN(C(c2ccccc2Cl)c2nnnn2Cc2cccs2)CC1 (configuration not stated) | . | . | 6.6 | -12 | 4878 | -2 | -3
O=C(Nc1cccc([N+](=O)[O-])c1)Nc1cnccn1 | 4 | 8 | 4.5 | -10 | 6083 | 1 | -14
FC(F)Sc1ccc(NC(=S)NC2CCCCC2)cc1 | 5 | 3 | -2.0 | -11 | 11835 | -29 | -70
S=C1NC(c2ccccc2)N2C(=S)NC(c3ccccc3)N12 (configuration not stated) | 20 | 2 | 0.8 | -6 | 10455 | -4 | -64
O=C(COC(=O)COc1ccccc1)Nc1ncc([N+](=O)[O-])s1 | 1 | 2 | 7.1 | . | 8052 | 6 | -18
Cn1c(=O)c(=O)n(C)c2cc(N3CCCCC3)c(NS(=O)(=O)c3ccc([N+](=O)[O-])cc3)cc21 | -7 | 1 | 8.5 | -10 | 5300 | 0 | -1
N#CC(=C(c1ccccc1)c1ccccc1)c1ccccc1 | 24 | 12 | -3.7 | . | 2866 | 26 | -8
Cn1c(CNC(=O)c2ccco2)nnc1SCC(=O)c1ccccc1 | 9 | 4 | 2.7 | -4 | 4740 | 3 | -23
CCOc1ccc(OCCC(=O)OCC(=O)Nc2ccc3c(c2)OCCO3)cc1 | 9 | 3 | 2.1 | -13 | 6019 | 5 | -26
CCCN1C(=O)/C(=C2/C=Cc3ccccc3N2CC)SC1=S | . | . | 6.2 | 29 | 4362 | 8 | -17
C#CCOCCOCCOCCNc1nc(N2CCOCC2)nc(N2CCN(C(=O)C(CCCCN)n3cc(CN)nn3)CC2)n1 (configuration not stated) | 10 | 6 | -1.0 | . | . | 0 | .
COc1ccc(C(=O)NCC(c2cccnc2)N2CCN(c3ccccc3OC)CC2)cc1OC (configuration not stated) | -7 | 8 | 15 | -9 | 5638 | 1 | -29
CCOc1ccc(NC(=O)c2ccc(-c3csc(C)n3)cc2)cc1 | 3 | -3 | 5.1 | 3 | 3852 | 6 | -23
O=C(Nc1nnc(COc2ccc(F)cc2)s1)c1cccs1 | . | . | 1.4 | 2 | 4966 | -3 | -17
COc1cc(C(=O)/C=C/Nc2ccc(NC(C)=O)cc2)cc(OC)c1OC | 4 | 6 | -2.5 | 0 | 2400 | 5 | -5
Cc1ccc(CNS(=O)(=O)NCc2ccc(Cl)cc2)cc1 | 3 | 9 | 2.7 | 4 | 2559 | -8 | -12
CCOC(=O)CCc1c(C)nc2c(c(C)nn2-c2ccccc2)c1C | 0 | -3 | 3.8 | -12 | 4196 | 2 | -7
Cc1ccc(-c2nnn(CCC(=O)N3CCCCC3C)n2)cc1 (configuration not stated) | 3 | -4 | 1.5 | -15 | 8171 | 10 | -24
CCOC(=O)c1c(S(=O)(=O)Nc2ccc(C)cn2)c(C)n(C)c1C | -7 | 1 | 2.0 | -10 | 5364 | 5 | -11
O=c1c2sc3nc(N4CCOCC4)c4c(c3c2ncn1-c1ccccc1)CCCC4 | 8 | 8 | 74 | 4 | 4442 | 29 | -19
COc1ccc(C(=O)NCc2nnc(SCC(=O)Nc3ccccc3OC)n2C)cc1 | 11 | 3 | 4.3 | 2 | 3911 | 12 | -14
Nc1nccnc1C(=O)OCC(=O)Nc1cccc(S(=O)(=O)N2CCCCC2)c1 | 7 | 4 | 4.7 | 1 | 2607 | 2 | -10
CC(=O)N/N=C/c1cc(C(C)C)cc(/C=N/NC(C)=O)c1O | . | . | . | -7 | 2701 | . | -13
O=C(O)c1cn(Cc2ccccc2)c2ccc(Cl)cc2c1=O | 10 | 9 | -8.8 | 1 | 4162 | -12 | -21
CCCC(=O)C1=C(O)C(C(=O)OC)C(C)(C)CC1=NC(C)C (configuration not stated) | 15 | 8 | 5.3 | 1 | 2518 | -4 | 4
C=CCN(CC=C)C(=O)c1ccc(OC2CCN(Cc3ccccn3)CC2)cc1 | 2 | 5 | 2.3 | 2 | ? | -1 | -17
Nc1ccc(C(=O)OCC(=O)NC(=O)c2ccccc2)cc1[N+](=O)[O-] | 6 | 8 | 3.9 | 5 | 5141 | 4 | -12
CCCCn1c(N)c(N(CC(C)C)C(=O)CSc2nnc(-c3ccc(Cl)cc3)o2)c(=O)[nH]c1=O | 11 | 15 | 2.6 | 5 | 5034 | 8 | 2
COc1cccc(C=NNC(=O)c2ccccc2NC(=O)c2ccco2)c1OC | 5 | 9 | 3.9 | . | . | 17 | .
Cc1ccc(C(=O)Nc2nnc(C)s2)o1 | 6 | 4 | 5.0 | -2 | 13093 | 4 | -24
Cc1ccc(C2C(C(=O)c3cccs3)=C(O)C(=O)N2CCN2CCOCC2)o1 (configuration not stated) | 5 | 11 | 4.5 | -3 | 10267 | 5 | -19
Cn1c(SCc2cccc([N+](=O)[O-])c2)nc2ccccc2c1=O | -10 | -5 | -2.7 | . | 4398 | -16 | -20
Cc1cnc(CN(C)Cc2c(C(=O)N3CCCCCCC3)nc3ccc(Cl)cn23)[nH]1 | 9 | 2 | 0.4 | 0 | 6501 | -1 | -15
COc1cccc2sc(NC(=O)c3ccc(S(=O)(=O)N4CCOCC4)cc3)nc12 | -3 | 1 | -0.7 | 5 | 10277 | -11 | -6
COc1ccc(S(=O)(=O)N(CC(=O)O)Cc2ccccc2)cc1OC | 6 | 0 | 4.3 | 0 | 7031 | 9 | -13
Cc1cccc(C)c1NC(=O)c1sccc1SCc1cccc(C(F)(F)F)c1 | 2 | 0 | 3.0 | -6 | 17658* | -11 | -11
CN(C(=O)COC(=O)Cn1c(C(F)(F)F)nc2ccccc21)c1c(N)n(Cc2ccccc2)c(=O)[nH]c1=O | 5 | 3 | -5.1 | 14 | ? | -6 | -1
COc1cc(CNc2ccc(N3CCCC3)cc2)ccc1OCc1ccccc1F | 9 | 3 | 1.0 | . | 2337 | -1 | -47
Nc1ccc2c(c1)COc1ccccc1O2 | -7 | 3 | 1.2 | 2 | 11767 | -12 | -24
CC1CCN(CCOc2ccc(Cl)c(Cl)c2)CC1 | 2 | 0 | 4.1 | -14 | 2630 | 3 | -28
CC(C)(C)c1ccc(C(=O)/C(C#N)=C/c2cccs2)cc1 | 7 | -3 | 3.9 | 2 | 6484 | 2 | -32
CCN(CC)S(=O)(=O)c1ccc(-c2nnc(SCC(=O)N3CCOCC3)o2)cc1 | 12 | 7 | 5.7 | -4 | 10108 | -7 | -21
CC(C)(C)SC(=O)CC1NS(=O)(=O)OC2CCCCC12 (configuration not stated) | 10 | 10 | 4.3 | -2 | 3647 | -9 | -14
CCc1nc(SCc2cc(Cl)ccc2OC)n[nH]1 | 6 | 6 | 6.0 | -4 | 17236* | 17 | 3
COC(=O)C1=C(C(=O)OC)C2N(Cc3ccccc3)c3ccccc3[C@@]23CC(C(=O)OC)N=C3N1 (some centres not stated) | 15 | 14 | 6.3 | . | . | 3 | .
COc1ccc(NC(=O)c2cc(OC)c(OC)cc2OC)c(S(=O)(=O)N2CCOCC2)c1 | 5 | -3 | 4.3 | -4 | 3074 | -5 | -6

The order is random. About 4% of those tested had a hit in this group.
